Env fusion inh: HIV envelope-mediated fusion inhibition. AID 651610. actives 1.1% (n = 360,000). inhibition, % at 12.3 µM. HeLa-JRFL Env/CEM21 cell fusion, luciferase;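 active means mean replicate inhibition score of at least 50 and every replicate individually at or above 50; inconclusive means only one of the two criteria met; inactive means mean below 50 and not all replicates reaching 50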;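 further: 0% = plate neutral controls and 100% = maraviroc near 300 nM; one replicate is shown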
PABP FP inh: PABP-poly(A) binding inhibition; inhibition, % at 35 µM; actives 1% (n = 290,000); AID 2014; PABP-poly(A) RNA binding, fluorescence polarization;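 active means 50% or more with normal probe brightness, or confirmed in later tests; inconclusive means above 50% with abnormal brightness, or retests that disagree; inactive means below 50% or failed in later tests; about a fifth of its hits are not listed in these tables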;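 further: calls also rest on retests at 20 µM and on dose response follow-up; controls were probe without protein and protein plus probe with vehicle; some compounds called inactive have numbers as strong as hits; many hits fall short of the cut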
Target sequence (P11940 whole entry, looked up): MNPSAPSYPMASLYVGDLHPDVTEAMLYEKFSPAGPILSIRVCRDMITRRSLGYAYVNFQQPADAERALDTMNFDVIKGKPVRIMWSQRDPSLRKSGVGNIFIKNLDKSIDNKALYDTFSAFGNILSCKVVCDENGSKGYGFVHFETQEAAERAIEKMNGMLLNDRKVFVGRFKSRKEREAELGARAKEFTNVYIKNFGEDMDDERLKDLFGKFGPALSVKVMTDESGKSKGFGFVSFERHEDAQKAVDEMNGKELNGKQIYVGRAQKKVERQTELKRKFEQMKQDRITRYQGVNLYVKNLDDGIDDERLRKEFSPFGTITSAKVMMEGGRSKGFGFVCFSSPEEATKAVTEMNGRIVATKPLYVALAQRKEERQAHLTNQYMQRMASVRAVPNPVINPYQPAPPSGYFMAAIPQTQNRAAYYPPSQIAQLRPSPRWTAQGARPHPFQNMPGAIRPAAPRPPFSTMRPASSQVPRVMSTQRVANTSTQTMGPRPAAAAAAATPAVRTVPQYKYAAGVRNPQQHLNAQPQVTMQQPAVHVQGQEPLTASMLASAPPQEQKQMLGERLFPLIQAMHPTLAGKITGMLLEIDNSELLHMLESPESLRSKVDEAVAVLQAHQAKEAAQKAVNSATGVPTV
eIF4H FP inh: inhibitors of RNA binding by human eIF4H. Q15056. eIF4H fluorescence polarization binding assay. actives 0.94% (n = 290,000). inhibition, % at 35 µM. AID 2012;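 active means 50% or more with normal probe brightness, or confirmed in later tests; inconclusive means above 50% with abnormal brightness, or retests that disagree; inactive means below 50% or failed in later tests; about a fifth of its hits are not listed in these tables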;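 further: calls also rest on retests at 20 µM and on dose response follow-up; 0% = protein and probe with vehicle and 100% = probe without protein; strong numbers were not always called active; many hits fall short of the cut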
Rce1 inh: blocks yeast Ras-converting enzyme | Q03530 | yeast membranes, quenched prenylated peptide cleavage fluorescence | calls only | actives 0.27% (n = 290,000) | AID 2563;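 active means fall in fluorescence gain of 50% or more versus controls, with final raw signal at or below 3038400; inconclusive means same 50% fall but final raw signal above 3038400; inactive means fall in fluorescence gain under 50%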;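 further: plate controls were neutral control wells for no effect and wells lacking membranes for full effect; tested at 10 µM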
Target sequence (Q03530 whole entry, looked up): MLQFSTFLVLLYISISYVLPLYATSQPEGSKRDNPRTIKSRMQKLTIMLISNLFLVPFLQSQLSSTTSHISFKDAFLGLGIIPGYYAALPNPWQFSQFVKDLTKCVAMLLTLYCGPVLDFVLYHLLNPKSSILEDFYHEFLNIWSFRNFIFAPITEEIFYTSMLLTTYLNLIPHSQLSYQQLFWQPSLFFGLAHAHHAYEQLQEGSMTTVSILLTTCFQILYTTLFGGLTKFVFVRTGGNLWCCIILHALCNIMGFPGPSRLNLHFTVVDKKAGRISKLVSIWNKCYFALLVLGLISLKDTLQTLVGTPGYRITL
CSC inhib: blocks cancer stem cells; actives 1.1% (n = 300,000); cancer stem cell-like cells viability, luminescence; inhibition, % at 7.5 µM; AID 2717;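 active means mean at 75% or more and at least half the replicates too; inconclusive means mean and replicates disagree; tested in HMLE shEcad cells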;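 further: 0% = median of negative and 100% = median of positive control wells; the first replicate is given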
MT1-MMP act inh: MT1-MMP (human) activation inhibition; P50281; HT1080 RFP-PRO-GFP cells, GFP/RFP ratio fluorescence, overnight; percent of plate control window, DMSO zero; GFP/RFP ratio change, % at 20 µM; actives 0.061% (n = 360,000); AID 651647;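 active means GFP/RFP ratio change of at least 30% with cell ATP level not reduced by more than half and red fluorescence within 50% of control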; further: strong numbers were not always called active
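Test system: HT1080 cells expressing an RFP-PRO-GFP fluorescent reporter construct / Compound dosing: single-point 20 µM compound, 1% DMSO / Schedule: cells overnight before dosing, compound overnight, 37 °C, 5% CO2 / Evaluation: GFP/RFP fluorescence ratio / Control set: DMSO and RFP-L50D-GFP cell wells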
UUG fidelity: yeast start codon fidelity modulation | actives 0.13% (n = 350,000) | activity score, % at 18.7 µM | S. cerevisiae UUG-firefly luciferase reporter, luminescence/redox ratio;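 active means replicate mean at a twofold rise or more, about +100% in these data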;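 further: firefly luciferase made from a UUG start codon reports start codon fidelity; reporter light over untreated wells divided by growth signal over untreated wells; some hits fall short of that in this replicate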
eIF4H FP inh retest: recorded beside eIF4H FP inh, whose call it bears; inhibition, %; compound at 20 µM; confirmation average;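 mean of two retest wells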
PABP FP inh retest: recorded beside PABP FP inh, whose call it bears; inhibition, %; compound at 20 µM; confirmation repeats;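 mean of two retest wells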
MT1-MMP act inh RFP: recorded beside MT1-MMP act inh, whose call it bears; RFP signal change, %; measured here: RFP expression control read;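 0 = vehicle wells; hits needed this value within 50% of zero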
Starred values were filed as active, the others as inactive; i = inactive; ? = inconclusive; · = no result given.

SMILES | Env fusion inh | PABP FP inh | eIF4H FP inh | Rce1 inh | CSC inhib | MT1-MMP act inh | MT1-MMP act inh RFP | UUG fidelity | others
C=C(C)COc1ccc(-c2nc(N)ncc2Oc2ccc(OC)cc2)c(O)c1 | · | -2 | 2 | i | 24 | -5 | -2 | -8
O=C1CCCC/C=C\C[C@H](CC(=O)N(CCO)Cc2ccccc2)C(=O)N2CCC[C@@H]2CO1 | -21 | · | · | · | · | 2 | -1 | 24
COc1ccc(NC(=O)N2CCCC2C(=O)NCc2ccc(C)cc2)cc1 (stereo not given) | 3 | 21 | 11 | i | -9 | 1 | -1 | ·
Cc1ccc([C@H]2C(C(=O)O)=C[C@@H](CC3CCCC3)N2S(=O)(=O)c2ccc(C)cc2)cc1 | -1 | · | · | · | · | 3 | -5 | 0
Cc1ccc2[nH]c3c(=O)[nH]ncc3c2c1 | 66* | 3 | 0 | i | -10 | -5 | -2 | -4
O=C(CSc1ccc(-c2ccco2)nn1)c1cccc([N+](=O)[O-])c1 | 14 | 10 | 103 | i | 53 | 8 | 5 | -16 | eIF4H FP inh retest=-9;PABP FP inh retest=12
O=C(c1ccc2c(c1)OCCO2)C1CCN(S(=O)(=O)c2ccccc2F)CC1 | -16 | -1 | -1 | i | -7 | 0 | -5 | -3
O=C(COc1ccc(S(=O)(=O)N2CCOCC2)cc1Cl)NCCCn1ccnc1 | -8 | 12 | 4 | i | 27 | -1 | 0 | -7
CN1CCCN(S(=O)(=O)c2cccc(C#N)c2)CC1 | -1 | 10 | -14 | i | -9 | 4 | 4 | 11
O=C(O)c1cccc(NC(=O)C2CCCO2)c1 (stereo not given) | -12 | 13 | -11 | i | 1 | 1 | 3 | -6
CN=C1c2cc3c(Br)c(OC)ccc3n2CCN1C | · | 1 | -6 | i | -2 | 0 | -2 | -2
OC(c1ccc(Cl)cc1)c1ncc(-c2cccc(C(F)(F)F)c2)[nH]1 (stereo not given) | -8 | · | · | · | · | -1 | -8 | -18
Cc1ccc2c(c1)N(CC(=O)OC(CC(C)C)C(=O)NC1CCCC1)C(=O)CO2 (stereo not given) | 8 | 7 | -1 | i | -10 | -2 | 2 | 14
O=c1c2c(n3nnnc3n1-c1ccccc1)-c1ccccc1CC21CCCC1 | · | -11 | -3 | i | 3 | -3 | 0 | -10
CC(Oc1ccc(Cl)cc1Cl)C(=O)NCCCCc1ccccc1 (stereo not given) | 12 | 5 | 6 | i | 27 | -4 | -3 | -18

Copied from the results shown (four entries):
SMILES | Env fusion inh | PABP FP inh | eIF4H FP inh | Rce1 inh | CSC inhib | MT1-MMP act inh | MT1-MMP act inh RFP | UUG fidelity | others
OC(c1ccc(Cl)cc1)c1ncc(-c2cccc(C(F)(F)F)c2)[nH]1 (stereo not given) | -8 | · | · | · | · | -1 | -8 | -18
Cc1ccc2c(c1)N(CC(=O)OC(CC(C)C)C(=O)NC1CCCC1)C(=O)CO2 (stereo not given) | 8 | 7 | -1 | i | -10 | -2 | 2 | 14
O=c1c2c(n3nnnc3n1-c1ccccc1)-c1ccccc1CC21CCCC1 | · | -11 | -3 | i | 3 | -3 | 0 | -10
CC(Oc1ccc(Cl)cc1Cl)C(=O)NCCCCc1ccccc1 (stereo not given) | 12 | 5 | 6 | i | 27 | -4 | -3 | -18

More records follow:
SMILES | Env fusion inh | PABP FP inh | eIF4H FP inh | Rce1 inh | CSC inhib | MT1-MMP act inh | MT1-MMP act inh RFP | UUG fidelity | others
O=C1CC(=C(c2ccccc2)c2ccccc2)C(=O)N1CCN1CCN(c2cccc(Cl)c2)CC1 | · | 19 | -12 | i | 42 | 1 | -6 | -14
Cc1onc(-c2c(F)cccc2Cl)c1C(=O)N1CCN(c2ncccn2)CC1 | -8 | -3 | -5 | i | -7 | -1 | 1 | 2
CCC(C)(C)NC(=O)C(c1ccccc1Cl)N(C(=O)CCC(=O)Nc1cc(C)on1)C(C)(C)C (stereo not given) | 8 | 8 | -1 | i | -12 | -9 | -4 | 0
Cn1c(=O)oc2cc(C(=O)c3ccccc3)ccc21 | · | 4 | -1 | i | -23 | 3 | 2 | -15
Cc1onc(-c2ccccc2)c1C(=O)N/N=C/c1ccc(Br)cc1 | 56* | -3 | 1 | i | 10 | -2 | -6 | -1
O=C(CCCl)N(Cc1nc2ccccc2c(=O)[nH]1)Cc1cccs1 | -10 | 2 | -8 | i | -14 | -1 | 0 | ·
CCCCC(=O)OCC(=O)Nc1cccc(S(=O)(=O)NC2=NCCCCC2)c1 | 9 | -65 | 4 | i | -21 | 1 | 2 | ·
CCOC(=O)c1c(C)[nH]c(C(=O)/C(C#N)=C/c2ccc(OCC)cc2)c1C | -101 | -4 | 0 | i | 2 | -33 | 9 | -1
CC(=O)O[C@@H]1[C@@]2(C)O[C@H]2CC[C@]23O[C@H]2[C@H](OC3=O)C2=C(C)C(=O)O[C@@]21O | -5 | -4 | 0 | i | · | 2 | -1 | -14
COc1ccc(CNC(=O)C(C)OC(=O)CN2C(=O)COc3ccccc32)cc1 (stereo not given) | -4 | 1 | -4 | i | -14 | 1 | 3 | -3
Cc1cc(NC(=O)CCC(=O)N(Cc2ccco2)C(C)(C)C(=O)NC2CCCCC2)no1 | -69 | -10 | 2 | i | -15 | -2 | 2 | ·
O=C(COc1ccc(Cl)cc1)Nc1cnn(Cc2c(Cl)cccc2Cl)c1 | · | -5 | -2 | i | -17 | 4 | 4 | -22
COc1ccc(C(=O)Nc2ccccc2N2CCN(C(=O)C(C)C)CC2)cc1Cl | · | 1 | 6 | i | -9 | 0 | 1 | 2
CC(C)(C)c1ccc(Cn2nnc3c(=O)[nH]c(C4CCN(C(=O)Cc5cccs5)CC4)nc32)cc1 | 72* | 11 | -3 | i | 42 | 4 | -8 | 4
O=S(=O)(NCC(O)COCc1ccco1)c1cccs1 (stereo not given) | · | 19 | 23 | i | 14 | 7 | 0 | -8
Cc1cc(=O)[nH]c(SCC(=O)N2CCN(C(c3ccccc3)c3ccccc3)CC2)n1 | · | -14 | 4 | i | -6 | -8 | 0 | 15
O=C(CCc1ccncc1)NC1CCCc2c1cnn2-c1ccc(F)cc1F (stereo not given) | 7 | -4 | -4 | i | 3 | -3 | -26 | -26
COc1cccc(/C(O)=C2/C(=O)C(=O)N(CCN(C)C)C2c2ccc(Br)cc2)c1 (stereo not given) | · | 12 | -3 | i | -12 | 6 | 3 | -2
COc1ccc(OC)c(S(=O)(=O)Nc2ccccc2SC)c1 | 6 | -6 | 3 | i | -14 | -3 | 2 | -5
Cc1ccc(CNC(=O)c2ccc3c(=O)n(CC4CCCO4)c(=S)[nH]c3c2)cc1 (stereo not given) | · | -1 | 0 | i | 4 | 2 | -6 | -24
O=c1cc(CCl)nc2sc3ccccc3n12 | 2 | ? | 28 | i | -12 | -5 | -7 | -1
CC(C)(C)c1ccc(OCCCn2ccnc2)cc1 | 2 | 1 | -3 | i | 26 | 6 | -2 | -12
CCOc1ccc(NS(=O)(=O)c2ccc(NC(C)=O)c(OC)c2)cc1 | -23 | -1 | -7 | i | -8 | 6 | 4 | -11
O=C(/C=C/c1ccccc1)NCc1ccco1 | 5 | -4 | -6 | i | 1 | 2 | 4 | -12
CC(=O)c1ccc(-n2c(=O)[nH]c(=O)c3c(N)c(C(=O)c4ccc(Cl)cc4)sc32)cc1 | -2 | -7 | -10 | i | 43 | -2 | -9 | -8
CC(C)C[C@H](NC(=O)N1CCn2c1nc1ccccc12)C(=O)NCCc1ccccc1 | 5 | -4 | -13 | i | -22 | -3 | 0 | 5
CC1(C)C(=O)OC(c2cccn2-c2ccc([N+](=O)[O-])cc2)C(C)(C)C1=O (stereo not given) | 6 | 0 | -1 | i | 2 | -6 | -3 | ·
Cc1cccc2nc(COc3ccc4ccccc4c3Br)cn12 | -94 | -12 | -15 | i | 27 | 5 | 1 | ·
COc1ccc(COC(=O)c2ccc(Cl)c(S(=O)(=O)N3CC(C)OC(C)C3)c2)cc1 (stereo not given) | 18 | · | · | i | -3 | 1 | -17 | -16
Cc1ccc(C(=O)Nc2sc(C)c(C)c2C(=O)c2ccccc2)cc1 | 13 | 18 | -1 | i | 41 | 0 | 0 | ·
Cc1ccccc1C(=O)N1c2ccccc2OCC1C(C)(C)C (stereo not given) | 38 | 0 | -1 | i | 21 | 0 | -9 | -11
CCn1c(SCc2nc3ccccc3[nH]2)nnc1-c1cnccn1 | 17 | -3 | -9 | i | 4 | 0 | -1 | -22
CC(C)(C)C1CCc2sc(C(=O)NNC(=O)CCl)cc2C1 (stereo not given) | -7 | -4 | -14 | i | · | -2 | 2 | -22
Cc1nn(C)c(C(=O)N/N=C/c2ccc(-c3ccccc3)cc2)c1Cl | -12 | -6 | -22 | · | -1 | 3 | 0 | -16
CC(C)(CN=C1NS(=O)(=O)c2ccccc21)CNC(=O)c1ccccc1 | · | -3 | -1 | i | -4 | 1 | 1 | -6
COc1ccc(-c2cn(Cc3cccc(OC)c3)nn2)cc1 | · | 21 | 8 | i | -5 | 3 | -1 | -10
CN(C(=O)c1cccc(Br)c1)C1CCS(=O)(=O)C1 (stereo not given) | -1 | · | · | i | -8 | 2 | 2 | -8
COc1ccc(OC)c(S(=O)(=O)N2CCC(C(=O)NCc3ccccc3)CC2)c1 | -39 | -2 | -4 | i | -13 | 5 | 6 | -7
C1CCN(c2nc3nonc3nc2N2CCCC2)C1 | -30 | 8 | 34 | i | -4 | -3 | -6 | -19
Cc1ccc(Cn2c(CN3CC(C)OC(C)C3)nc3c2c(=O)n(C)c(=O)n3C)cc1 (stereo not given) | -7 | 6 | -12 | i | -6 | 3 | 7 | -4
CC1CCCCC1NC(=O)CCS(=O)(=O)c1cccc2nonc12 (stereo not given) | -43 | 36 | 7 | i | -3 | 4 | 1 | -3
CN1CCN(c2nc(Nc3ccc(F)cc3)nc(Nc3ccc(F)cc3)n2)CC1 | -8 | -20 | -7 | i | 10 | 2 | -2 | -27

Of the compounds above, these contain a nitro group on carbon.
SMILES | Env fusion inh | PABP FP inh | eIF4H FP inh | Rce1 inh | CSC inhib | MT1-MMP act inh | MT1-MMP act inh RFP | UUG fidelity | others
O=C(CSc1ccc(-c2ccco2)nn1)c1cccc([N+](=O)[O-])c1 | 14 | 10 | 103 | i | 53 | 8 | 5 | -16 | eIF4H FP inh retest=-9;PABP FP inh retest=12
CC1(C)C(=O)OC(c2cccn2-c2ccc([N+](=O)[O-])cc2)C(C)(C)C1=O (stereo not given) | 6 | 0 | -1 | i | 2 | -6 | -3 | ·

Compound activity as filed in PubChem BioAssay.

The list is partial, so the mix of outcomes need not match the whole.
